Screens from PubChem.
TsaE inh: YjeE (TsaE) inhibition, E. coli; P0AF67; Potency, µM; hit rate 0.05% among 71,000; purified YjeE, fluorescence polarisation of a bound ADP probe; active = well fitted falling curve; inconclusive = weaker or top-dose-only fall, or a rising curve; inactive = flat or poorly fitted curve;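 also: top concentration of the series not given in the record; excess ADP was the control for the full effect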
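Purified YjeE (10 uM) with BODIPY Texas Red-labeled ADP probe (2 uM); compounds pin-transferred, 15 min at room temperature. Binding inhibition read as decreased fluorescence polarization; ADP titration as control.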
Bst PK mod: alters activity of Bacillus stearothermophilus pyruvate kinase | partly purified Bacillus stearothermophilus pyruvate kinase, luminescence ATP production; ribose 5-phosphate activator present at AC10 | Potency, µM | hit rate 1.2% among 51,000; in the data active means potency below about 11 µM; inconclusive means mostly about 12 µM to 25 µM; inactive means weaker than that;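 the screen sought inhibitors and activators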;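 also: potency is read from the fitted curve at half-maximal effect; scaled between full activation by ribose 5 phosphate and full inhibition by luteolin; about four in five hits inhibit and the cells do not say which; series up to 57 µM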
An asterisk follows results filed as active; i = inactive; x = no result given.

Sample of the layout (five entries):
Below each compound – TsaE inh | Bst PK mod
- COC(C)(C)[C@]12CC(O)(c3ccccc3)ON1[C@H]1CCCCC1N2O (stereo not given in full)
→ i | >57
- COCCNC(=O)C1CCCN(c2ncccn2)C1 (stereo not given)
→ i | >57
- CCCCCNC(=O)C(C)NS(=O)(=O)c1ccc(OC)cc1 (stereo not given)
→ i | >57
- Cc1cc(=O)n2c(ccc3ccccc32)c1C#N
→ i | x
- Cc1cc(C(=O)CSC(=S)SC(C)(C)C)ccc1Cl
→ i | x

The whole of this part, repeating the preview:
Below each compound – TsaE inh | Bst PK mod
- COC(C)(C)[C@]12CC(O)(c3ccccc3)ON1[C@H]1CCCCC1N2O (stereo not given in full)
→ i | >57
- COCCNC(=O)C1CCCN(c2ncccn2)C1 (stereo not given)
→ i | >57
- CCCCCNC(=O)C(C)NS(=O)(=O)c1ccc(OC)cc1 (stereo not given)
→ i | >57
- Cc1cc(=O)n2c(ccc3ccccc32)c1C#N
→ i | x
- Cc1cc(C(=O)CSC(=S)SC(C)(C)C)ccc1Cl
→ i | x
- COc1ccccc1CNC(=O)CN1C(=O)C(C)N(c2ccc(C)cc2)C1=O (stereo not given)
→ i | >57
- CCC(C)Sc1nc2c(cnn2-c2ccccc2)c(=O)[nH]1 (stereo not given)
→ i | x
- O=C(COC(=O)c1ccccn1)Nc1ccccc1Cl
→ i | >57
- O=C(Cn1nnc(-c2ccc(Cl)cc2)n1)NC1CC2CCC1C2 (stereo not given)
→ i | >57
- CCOC(=O)N1CCN(C(=O)CN(c2ccc(Cl)c(C(F)(F)F)c2)S(C)(=O)=O)CC1
→ i | x
- Cc1sc2nc(C(C)C)nc(SCC(=O)NCc3ccco3)c2c1C
→ i | >57
- Cc1ccc2c(CSc3nnc(C4CC4)n3N)cc(=O)oc2c1
→ i | >57
- CC(=O)N1CCc2cc(S(=O)(=O)NC(CC(C)C)C(=O)Nc3cc(C)ccn3)ccc21 (stereo not given)
→ i | >57
- CC(C)Cc1nnc(NC(=O)CSc2ncn[nH]2)s1
→ i | >57
- CC[C@H]1NC(=O)c2cc(S(N)(=O)=O)c(Cl)cc2N1
→ i | x
- CCCC(=O)C1=C(N(C)c2ccccc2)CC(C)(C)C(C(=O)OC)C1=O (stereo not given)
→ i | x
- Cc1cc(C)n(-c2nc(NCCO)c3c4c(sc3n2)CCCC4)n1
→ i | x
- Cc1ccc(N(C(C)C(=O)Nc2ccc3c(c2)OCO3)S(C)(=O)=O)cc1 (stereo not given)
→ i | >57
- CCOC(=O)c1ccc(CS(=O)c2ccc(Cl)cc2)o1 (stereo not given)
→ i | >57
- O=C(c1cc2ccccc2c(=O)o1)N1CCCc2ccccc21
→ i | >57
- Cc1ccc(-c2nnc3ccc(SC(C)C(=O)O)nn23)cc1 (stereo not given)
→ i | x
- CCOC(=O)C1(Nc2nccs2)Sc2ccccc2NC1=O (stereo not given)
→ i | >57
- OC1CCCN(c2c3c(nc4cc(-c5cccc(Cl)c5)nn24)CCC3)C1 (stereo not given)
→ i | x
- Cc1ccc(C)c(NC(=O)C2CC(O)CN2C(=O)OC(C)(C)C)c1 (stereo not given)
→ i | >57
- Cc1ccc(NC(=O)CSc2nnc(Cn3c(=O)sc4ccccc43)n2C)cc1
→ i | x
- CC(C)(C)n1nnnc1C(c1cccc(C#N)c1)N1CCCc2ccccc21 (stereo not given)
→ i | >57
- O=C(C1CCN(S(=O)(=O)N2CCC3(CC2)OCCO3)CC1)N1CCOCC1
→ i | >57
- CN1CCN(Cc2cc(COCc3ccccc3)c3cccnc3c2O)CC1
→ i | >57
- NC(=O)c1ncn([C@H]2O[C@@H](CO)[C@@H](O)[C@@H]2O)n1
→ i | x
- COc1ccc(NC(=O)Nc2ncn(Cc3cccc(C(F)(F)F)c3)n2)cc1OC
→ i | >57

One compound at a time (already shown). Screens in order: TsaE inh	Bst PK mod
Entry for Cc1ccc(N(C(C)C(=O)Nc2ccc3c(c2)OCO3)S(C)(=O)=O)cc1 (stereo not given) : i	>57
Entry for Cc1cc(C(=O)CSC(=S)SC(C)(C)C)ccc1Cl : i	x
Entry for Cc1cc(=O)n2c(ccc3ccccc32)c1C#N : i	x

Continuation.
Below each compound – TsaE inh | Bst PK mod
- CCOC(=O)c1[nH]c2ccc(OC)cc2c1NC(=O)c1nonc1C
→ i | >57
- Cc1ccc(O)c(-c2cc(C(=O)Nc3ccc(S(=O)(=O)N4CC(C)OC(C)C4)cc3)[nH]n2)c1 (stereo not given)
→ i | >57
- COc1cc(Sc2ccc(C)cc2)c(OC)cc1N
→ i | >57
- CCOc1ccc(N2CC(C(=O)NCc3ccc(F)cc3)CC2=O)cc1 (stereo not given)
→ i | >57
- C=CCSC1=N/C(=C\c2ccc(C)o2)C(=O)S1
→ i | x
- Cc1cc(C)c(NC(=O)CS(=O)CC(=O)NCC2CCCO2)c(C)c1 (stereo not given)
→ i | >57
- N#CC1=C(N)NC(SCc2ccccc2)=C(C#N)C12CCCCC2
→ i | x
- CCNc1nc(NCC)nc(Nn2cnnc2)n1
→ i | x
- FC(F)(F)c1ccccc1Nc1nccs1
→ i | >57
- Cc1ccc(N2C(=O)c3ccccc3C2Nc2cccnc2)nc1 (stereo not given)
→ i | x
- CNc1nc(-c2ccccc2CN(C)C)nc2ccccc12
→ i | x
- CCC(C)NC(=O)c1cnn2c1NC(c1ccc3c(c1)OCO3)CC2C(F)(F)F (stereo not given)
→ i | >57
- C[C@H]1NC(=O)NC1=O
→ i | x
- Cc1ccc2[nH]c(=O)c(CN(CC3CCCO3)C(=O)c3ccncc3)cc2c1 (stereo not given)
→ i | >57
- O=C(Nc1ccc2oc(-c3ccccc3)nc2c1)c1ccc2c(c1)OCCO2
→ i | x
- Cc1cc(C)cc(-n2c(=O)c3sccc3n(CC(=O)NCc3ccco3)c2=O)c1
→ i | >57
- O=C(O)c1ccc2c(c1)N(Cc1cccc(F)c1)C(=O)CS2
→ i | x
- CNC(=O)[C@]1(C)C[C@H]1[C@H](NC(=O)[C@]1(C)C[C@H]1[C@H](NC(=O)[C@]1(C)C[C@H]1[C@H](NC(=O)[C@]1(C)C[C@H]1[C@H](NC(=O)OCc1ccccc1)c1ccccc1)c1ccccc1)c1ccccc1)c1ccccc1
→ i | x
- OC(CNCC1COc2ccccc2O1)COCc1cccs1 (stereo not given)
→ i | >57
- CSc1ccc(C(C(C(=O)c2cccs2)N2CCOCC2)N2CCOCC2)cc1 (stereo not given)
→ i | x
- O=C(Cn1nc(-c2ccc(Cl)cc2)ccc1=O)NCCN1CCOCC1
→ i | x
- O=C(NCc1ccco1)C1CC(=O)N(CCc2ccccc2)C1 (stereo not given)
→ i | >57
- CN(C)/C=C1/Nc2ccccc2C1=O
→ i | >57
- C=C(C)COc1ccc(-c2nc(N)nc(C)c2Oc2ccccc2OC)c(O)c1
→ i | >57
- O=C(NC1CCCc2ccccc21)C1CCCN(S(=O)(=O)c2cnc[nH]2)C1 (stereo not given)
→ i | x
- CCC(=O)Nc1cc(=O)[nH]c2ncnn12
→ i | >57
- COc1cc(-c2ccc(=O)[nH]n2)ccc1OC(F)F
→ i | x
- N#Cc1nc(COc2ccc(Cl)cc2Cl)oc1N1CCN(c2ccccc2)CC1
→ i | >57
- Cc1cc(C)c2c(CC(=O)O)coc2c1
→ i | x
- COC(=O)[C@@]1(Cc2ccc(OC)cc2)[C@H]2c3cc(C(=O)N(C)C)n(CCN4CNCC4=O)c3C[C@H]2CN1C(=O)c1ccccc1
→ i | x
- CCOC(=O)c1cc2c3ccccc3n(CC)c2nc1N
→ i | x
- Cc1nc2cc3nc(C)sc3cc2s1
→ i | i
- CCOc1ccc2nc(NS(=O)(=O)c3ccc4c(c3)n(C)c(=O)n4C)sc2c1
→ i | x
- CSc1nc(N)c2ncn([C@@H]3O[C@@H](COP(=O)(O)OP(=O)(O)OP(=O)(O)O)[C@@H](O)[C@H]3O)c2n1
→ i | x
- Cc1ccc2nc3c(cc(C(=O)NCC4CCCO4)n3C)c(=O)n2c1 (stereo not given)
→ i | >57
- O=C(Nc1nnc(/N=C/c2ccco2)s1)c1ccc(F)cc1
→ i | x
- Cc1occc1-c1nnc(SCC(=O)Nc2ccccc2N2CCCCC2)n1C
→ i | >57
- Cc1cc2ccccc2c(=O)n1CC(=O)NCC1COc2ccccc2O1 (stereo not given)
→ i | >57
- O=[N+]([O-])c1ccc2c(c1)Cc1cc(N=Cc3ccc4c(c3)OCO4)ccc1-2
→ i | x
- Cc1ccc(N2CCN(C(=O)c3ccccc3Br)CC2)c(C)c1
→ i | >57
- O=C(CN1CCOCC1)Nc1ccc(S(=O)(=O)NC2CCCCC2)cc1
→ i | >57
- Cn1c(=O)c2c(nc(NCc3ccco3)n2Cc2ccc(Cl)cc2Cl)n(C)c1=O
→ x | >26
- CS(=O)(=O)Nc1cccc(C(=O)CC2(O)C(=O)Nc3ccc(Br)cc32)c1 (stereo not given)
→ i | >57
- Nc1cc(N)c(OCC(F)(F)F)cc1OCC(F)(F)F
→ i | >57
- CC(=O)OCC(=O)[C@@]1(O)CC[C@H]2[C@@H]3CCC4=CC(=O)C=C[C@]4(C)[C@@]3(Cl)[C@@H](Cl)C[C@@]21C
→ x | >26
- O=C(NCCCN1CCOCC1)c1ccc(CS(=O)(=O)c2cccc(C(F)(F)F)c2)o1
→ i | >57
- Cc1c(C(=O)NCc2ccccc2Cl)oc2c1C(=O)CCC2
→ i | x
- O=C(CSc1ccc2nnc(-c3ccc(Cl)cc3)n2n1)N1CCCC1
→ i | x
- Cc1ccc(C)c2[nH]c(=O)c(CCNC(=O)C(C)(C)C)cc12
→ i | x
- COc1ccc2[nH]c(=O)c(CN(Cc3cccs3)S(=O)(=O)c3cccc4nsnc34)cc2c1
→ i | >57
- CCn1c(SCC(=O)NCc2cccs2)nnc1-c1ccncc1
→ i | >57
- O=S1(=O)C=C(N2CCCCC2)c2ccccc21
→ i | >57
- Cc1ccc(NC(=O)CSc2nnc(Cn3cnc4ccccc43)o2)cc1
→ i | >57
- COc1ccc(Cl)cc1NC(=O)c1ccoc1C
→ i | x
- CCOC(=O)CSc1nc(N2CCOCC2)c2c(c1C#N)CC(C)(C)N(C)C2
→ x | >26
- Cc1ccc(-c2nnn(CC(=O)N(CC3CCCO3)C(C(=O)NC(C)(C)C)c3ccc(F)cc3)n2)o1 (stereo not given)
→ i | >57
- c1ccc(-c2nc(-c3ccncc3)no2)cc1
→ i | i
- CS(=O)(=O)Nc1ccc([N+](=O)[O-])cc1OC1CCCCC1
→ i | x
- CCN1C=CC(=C2C(=O)c3ccccc3C2=O)C=C1
→ i | x
- O=C(O)CCC(=O)CCC(=O)c1ccccc1
→ i | >57

Next entries follow:
Below each compound – TsaE inh | Bst PK mod
- C=CCN(C)CCCNC(=O)/C=N/O
→ x | >11
- N#CCCCCn1c(-c2cncs2)nc2ccccc21
→ i | >11
- C=CCN1C(=O)C2C(C(=O)NCc3ccccc3)C3(C)C=CC2(O3)C1C(=O)NC(C)(C)C (stereo not given)
→ i | >57
- O=C(CSc1nc2scc(-c3ccco3)c2c(=O)n1-c1ccccc1)N1CCOCC1
→ i | >57
- COC(=O)c1c(N)nc(C)n1-c1ccc(OC)cc1
→ i | >57
- Cc1ccccc1NC(=O)CSCCO
→ i | >57
- CCN(CC)c1ccc(NC(=O)CN2CCN(c3nc(C)cc(C)n3)CC2)cc1
→ i | >57
- O=C1CS/C(=N\c2ccccn2)N1C1CCCCC1
→ i | >57
- C=CCNc1nc2c(c(=O)[nH]c(=O)n2C)n1CCCCC
→ i | >57
- O[C@H](COc1ccccc1)CN1CCCCC1
→ i | x
- COc1ccc(CC(=O)c2ccc(O)cc2O)cc1OC
→ i | x
- COc1ccc(NC(=O)C2CCCN(S(=O)(=O)c3cccc4nonc34)C2)c(OC)c1 (stereo not given)
→ i | >57
- O=C(c1nsnc1-c1ccccc1O)N1CCCCC1
→ x | >26
- COc1ccc(OCc2nc(C#N)c(N3CCN(c4ccc(OC)cc4)CC3)o2)cc1
→ i | x
- O=c1c(-c2ccccc2)nc2cnc(N3CCNCC3)nc2n1-c1ccccc1
→ i | x
- Cc1ccc(C2CC(C(F)(F)F)n3nc(C(=O)NCC4CCCO4)cc3N2)cc1 (stereo not given)
→ i | >57
- CCn1c(-c2cc(OC)ccc2OC)csc1=Nc1c(C)n(C)n(-c2ccccc2)c1=O
→ i | >57
- Cc1noc(C)c1CSc1nnc2ccc3ccccc3n12
→ i | >57
- COc1ccc(NC(=O)C2CCN(S(=O)(=O)c3ccc(C)cc3)CC2)cc1OC
→ i | x
- O=C(CCC1CCCC1)N1CCN(C(=O)C2CC2)CC1
→ i | >57
- O=C(O)/C(Cc1ccc([N+](=O)[O-])cc1)=N/O
→ i | x
- Nc1nncn1C(=O)c1cccs1
→ i | 2.5*
- COc1ccccc1N1CCN(C(CNS(=O)(=O)c2cccs2)c2cccnc2)CC1 (stereo not given)
→ i | x
- O=C(NCc1ccco1)C1CCN(C(=O)Cc2ccccc2)CC1
→ i | x
- Cc1nc(NC2CCCCC2)c2nc(-c3ccccc3)n(CCN3CCCCC3)c2n1
→ i | x
- Cc1ccc(CNC(=O)CN2CCC(C(N)=O)CC2)cc1
→ i | >57
- COc1ccc(N2CCCCn3c2nc2c3c(=O)n(C)c(=O)n2C)cc1
→ i | >57
- CSc1cc(C)nc(N(C)C(C)=O)n1
→ x | >26
- CC(C)Oc1ccc(C(=O)NC2CCS(=O)(=O)C2)cc1 (stereo not given)
→ i | >57
- COCCn1c(=O)c(-c2ccccc2)nc2cnc(OC)nc21
→ i | x
- COc1cc(C(=O)Nc2nnc(C)s2)cc(OC)c1OC
→ i | x
- CCCCC(=O)NCCNc1nc2c(c(=O)n(C)c(=O)n2C)n1Cc1ccccc1
→ i | >57
- CCCOc1ccc(N2C(=O)CC(N(Cc3ccc(S(N)(=O)=O)cc3)C(=O)CC)C2=O)cc1 (stereo not given)
→ x | >26

Only part of the results is shown; the hit share may differ from the screen's.
